# GIRK2 act – GIRK2 channel activation | P48051 | HEK293-GIRK2 thallium flux, Thallos fluorescence | calls only for hits at 25 µM | 0.05% of 63,000 active;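 active means among the strongest 0.2% of first-round signals and kept after retests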;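 further: first round at about 10 µM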
# Target sequence (P48051 whole entry, looked up): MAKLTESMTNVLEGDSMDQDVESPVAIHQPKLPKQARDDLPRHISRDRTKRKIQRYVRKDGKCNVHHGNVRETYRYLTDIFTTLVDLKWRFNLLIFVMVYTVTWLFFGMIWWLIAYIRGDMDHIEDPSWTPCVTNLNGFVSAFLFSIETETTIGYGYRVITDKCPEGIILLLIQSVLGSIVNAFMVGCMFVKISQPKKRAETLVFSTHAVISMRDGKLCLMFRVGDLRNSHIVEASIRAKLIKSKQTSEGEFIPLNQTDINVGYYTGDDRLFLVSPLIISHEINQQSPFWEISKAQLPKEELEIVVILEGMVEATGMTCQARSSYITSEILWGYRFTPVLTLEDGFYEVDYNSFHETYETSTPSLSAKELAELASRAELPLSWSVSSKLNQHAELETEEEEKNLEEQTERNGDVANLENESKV
# Calls only; i = inactive; + = active, no number. An excerpt; rates above refer to the full screens.
SMILES,GIRK2 act
COc1ccc(-n2nnc(C(=O)Nc3cc(NC(C)=O)ccc3OC)n2)cc1,i
O=C(COc1ccc(Cl)cc1Cl)NCc1cc(-c2ccncc2)n(C2CCCC2)n1,i
COc1ccc(C(=O)Nc2ccc(Cn3cnc(C(=O)Nc4ccc(F)c(F)c4)c3)cc2)cc1,i
O=C(Nc1ncc(Cc2cc(Cl)cc(Cl)c2)s1)C1CC1,i
COCCN1CCC(NC(=O)Cc2ccc(-c3ccccc3)cc2)CC1,i
Cc1noc(-c2cccn(Cc3cc(=O)n4ccccc4n3)c2=O)n1,i
COc1cccc(NC(=O)CSc2nccn(-c3ccc(C)cc3)c2=O)c1,i
Nc1c(-c2nc(-c3ccc(F)cc3)cs2)nnn1-c1ccc(Cl)cc1,i
COc1ccc(/C=C/C(=O)Nc2cnc(-n3ccnc3)nc2)cc1OC,i
O=C(COc1ccc2c(c1)C(=O)CC2)NCCC1=CCCCC1,i
O=C(Nc1cnc(N2CCN(c3ccccc3)CC2)nc1)c1ccccc1Cl,i
Cc1cc(C)n(CC(=O)Nc2ccccc2C(F)(F)F)c(=O)c1C#N,i

# Overlap with the part before: 2 compounds; new compounds follow.
SMILES,GIRK2 act
O=C(Nc1cnc(N2CCN(c3ccccc3)CC2)nc1)c1ccccc1Cl,i
Cc1cc(C)n(CC(=O)Nc2ccccc2C(F)(F)F)c(=O)c1C#N,i
COc1ccc(C2(CNS(=O)(=O)c3cc(C)ccc3OC)CCOCC2)cc1,i
CN1CCc2c(sc(NC(=O)c3ccc(Cl)cc3)c2-c2nc3ccccc3s2)C1,i
O=C(NCc1cnn2ccccc12)c1ccc(S(=O)(=O)N2CCCCC2)cc1,i
CCOC(=O)CCC(=O)Nc1nc2c(s1)COCC2,i
CCOc1ccc(S(=O)(=O)N2CC(c3nc(C4CC4)no3)C2)cc1,i
COc1ccc(-n2nnc3c(N4CCN(C(=O)C56CC7CC(CC(C7)C5)C6)CC4)ncnc32)cc1,i
COc1ccc(N2CC(C(=O)N3CC4CC3C(=O)O4)CC2=O)cc1 (stereo not given),i
O=C(NCc1ccc2c(c1)OCO2)c1ccc(Oc2nccnc2N2CCSCC2)cc1,i
Cc1ccc(Nc2ccc(NC(=O)Nc3ccccc3C)cc2)nn1,i
Cc1cc(=O)n2c(-c3cccc(NC(=O)C4CCCO4)c3)csc2n1 (stereo not given),i
COc1ccc(-c2coc3c4c(ccc3c2=O)OCN(CCCN2CCOCC2)C4)cc1OC,i
COc1ccc(OC)c(/C=N/Nc2nnc3c(n2)[nH]c2c(C)cccc23)c1,i
CCOC(=O)Cn1c(C)c(C)n2c3c(=O)n(Cc4cccc(C)c4)c(=O)n(C)c3nc12,i
O=C(c1c[nH]c2ccccc12)N1CCN(Cc2nnnn2-c2ccc(F)cc2)CC1,i
O=C(Oc1ccc2c(-c3cc4cc(Br)ccc4oc3=O)cc(=O)oc2c1)c1ccco1,i
CCN(CC)CCn1cnc2c1c(=O)n(C)c(=O)n2C,i
Cc1ccc(NC(=O)Cc2ccc(SC(C)C)cc2)cc1N1CCCC1=O,i
O=C(Nc1cc(-n2cccn2)ncn1)C1CC=CCC1 (stereo not given),i
CC1(C)Cc2cccc(OCC(=O)NCCn3nc(C4CC4)n(-c4ccccc4)c3=O)c2O1,i
COc1ccc(CCC(=O)Nc2cc(-n3ccc4ccccc43)ncn2)cc1,i
O=C(Cc1cccc2ccccc12)NCC#CCOc1ccc2c(c1)OCO2,i
COc1cc(NC(=O)NCCS(=O)(=O)N2CCc3ccccc32)cc(OC)c1OC,i
CCOc1ccc(-c2noc(-c3nnn(-c4ccc(C)c(C)c4)c3N)n2)cc1,i
O=C(Cn1ncn2nc(-c3ccccc3)cc2c1=O)NCc1ccc(F)cc1,i
CCCCn1c(SCC(=O)Nc2ncn[nH]2)nc2ccsc2c1=O,i
COC(=O)c1cc(OC)c(OC)cc1NC(=O)C1Oc2ccccc2OC1C (stereo not given),i
COc1cccc(-n2c(=S)sc3c(=O)[nH]c(SCC(=O)NCCC4=CCCCC4)nc32)c1,i
CCOC(=O)c1sc2ccccc2c1S(=O)(=O)N1CCC(C(N)=O)(N2CCCCC2)CC1,i
O=C(COc1ccccc1[N+](=O)[O-])N1CCCCCC1,i
Cc1cc(=O)[nH]c(-n2nc(-c3cccs3)cc2NC(=O)c2c(F)cccc2Cl)n1,i
COc1ccc(OC)c(/C=N\NC(=O)CNC(=O)c2ccc(S(=O)(=O)N3CCOCC3)cc2)c1,i
Cc1noc(-c2ccc(=O)n(CC(=O)NC3CCc4ccccc43)c2)n1 (stereo not given),i
Cc1cc(N2C(=O)c3oc4ccccc4c(=O)c3C2c2ccc(C(C)C)cc2)no1 (stereo not given),i
Cc1nc(C)c(C(=O)N2CCC(Oc3nc4c(F)cccc4s3)CC2)s1,i
Nc1ncnc2c1ncn2[C@@H]1O[C@H](CO)C[C@@H]1O,i
NC(=O)CSc1ncc(-c2cccc([N+](=O)[O-])c2)n1-c1cccc(Cl)c1,i
O=C(CCc1csc(NC(=O)c2cccs2)n1)Nc1ccc2c(c1)OCO2,i
COc1ccc(Cl)cc1NC(=O)NNC(=O)c1cccn(Cc2cccc(F)c2)c1=O,i
COc1ccc(-n2c(C)cn3c4c(=O)n(CCC(C)C)c(=O)n(C)c4nc23)cc1,i
CCN(C(=O)c1cc2cccnc2n(Cc2ccc(Cl)cc2)c1=O)C1CCCCC1,i
c1ccc(-c2cc(SCc3cn4ccccc4n3)ncn2)cc1,i
O=C(NCCC(O)c1ccc2c(c1)OCO2)c1ccccc1Cl (stereo not given),i
Cc1cc(NC(=O)C2CCCN(c3ccc(-c4ccc(F)cc4)nn3)C2)sn1 (stereo not given),i
CN(C)S(=O)(=O)N1CCN(c2ccc(-n3cccc3)nn2)CC1,i
O=C(NCc1ccccc1)Nc1ccc(Cl)c(Cl)c1,i
COc1ccc(OC)c(N2CCCn3c2nc2c3c(=O)n(CCCO)c(=O)n2C)c1,i
CS(=O)(=O)N1CCC(C(=O)N2CCc3nc(NC(=O)C4CC4)sc3C2)CC1,i
O=C(NCC(F)(F)F)C1CCN(C(=O)Cn2ccc3ccccc32)CC1,i

# Two of these compounds, reformatted:
GIRK2 act,SMILES
i,COc1ccc(-n2c(C)cn3c4c(=O)n(CCC(C)C)c(=O)n(C)c4nc23)cc1
i,CS(=O)(=O)N1CCC(C(=O)N2CCc3nc(NC(=O)C4CC4)sc3C2)CC1

# Later entries:
SMILES,GIRK2 act
Cc1nc2sc(C(c3ccccc3F)N3CCN(Cc4ccccc4)CC3)c(O)n2n1 (stereo not given),i
O=C(NCCCc1ccccc1)C(=O)Nc1ccc(N2CCCS2(=O)=O)cc1,i
CN1CCOc2ccc(NS(=O)(=O)c3ccccc3)cc2C1=O,i
COc1ccccc1OCC#CCNC(=O)c1ccsc1,i
COC(=O)c1cc2c(=O)n(C)c(=O)n(C)c2n1CC(C)C,i
O=C(Cn1nc2c(c1NC(=O)Cc1noc3ccccc13)CSC2)NCc1ccccc1,i
COc1ccc(Cl)cc1NC(=O)c1cc(=O)c(OC)co1,i
Cc1[nH]c2ccccc2c1C(c1ccc(O)cc1)c1c(C)[nH]c2ccccc12,i
CCc1nc(SCC(=O)NCCc2ccccc2)c2oc3ccccc3c2n1,i
COc1ccc(OC)c(-c2cc(C(=O)NCc3nc(C)no3)[nH]n2)c1,i
Cc1ccc(-c2csc3c(=O)n(CC(=O)Nc4c(C)cc(C)cc4C)cnc23)cc1,i
N#Cc1cccc(C(=O)N2CCC(CSC3=NCCS3)CC2)c1,i
O=C(/C=C/c1ccco1)N1CC(Oc2nc3ccccc3s2)C1,i
CN(C)S(=O)(=O)c1ccc(C(=O)NCC(O)c2cccn2C)cc1 (stereo not given),i
Cn1c(=O)[nH]c(=O)c2c1nc(N1CCN(CC(N)=O)CC1)n2Cc1cccc2ccccc12,i
COc1ccc(C(F)(F)F)cc1NC(=O)C1CCCN(c2ccc(-c3ccco3)nn2)C1 (stereo not given),i
O=C(NCc1ccsc1)NCc1cccc2ccccc12,i
CC(C)Oc1ccc(NC(=O)/C=C/c2ccccc2)cc1,i
COc1cc(/C=C2/SC(=S)N(c3ccccc3Cl)C2=O)ccc1O,+
Cc1noc(CNC(=O)CC2CCCC2)n1,i
Cc1ccc(-n2ncc3c2ncn2nc(CCc4ccccc4)nc32)cc1C,i
CCOc1ccc(C(=O)Nc2ccc3c(c2)CCCN3S(=O)(=O)c2ccc(OC)cc2)cc1,i
COc1ccc2cc(CNc3ccc(C)cc3)c(=O)n(CC(=O)NCc3ccc(C)cc3)c2c1,i
O=S(=O)(Nc1nc2ccccc2nc1NCc1ccco1)c1cccc(Cl)c1,i
COc1ccccc1OCC#CCNC(=O)CSC1CCCC1,i
COc1cc2c(cc1OC)CN(S(=O)(=O)CCCNC(=O)c1ccc(F)cc1)CC2,i
O=C(c1nc2ccccc2s1)N1CCN(CC(O)c2cccs2)CC1 (stereo not given),i
O=C(Nc1nc2c(s1)CN(C(=O)c1c(F)cccc1Cl)CC2)c1ccco1,i
COc1cc(Cl)ccc1C(=O)NC1(c2nc(C)no2)CCCCC1,i
NC(=O)CN1CCN(Cc2nc3ccccc3n2Cc2ccccc2)CC1,i
Cn1nc(-c2cccs2)cc1C(=O)NCc1ccncc1,i
Cc1cn2nnc(C(=O)Nc3ccc(Cl)c(Cl)c3)c2c(=O)[nH]1,i
O=C1COc2ccc(C(=O)COc3cc(=O)n4ccccc4n3)cc2N1,i
Cc1c(C)n2c3c(=O)n(C)c(=O)n(C)c3nc2n1CCN1CCN(c2ccccc2F)CC1,i
O=C(C1c2ccccc2Oc2ccccc21)N1CCC2(CC1)OCCS2,i
COCCNC(=O)c1nnn(-c2ccc(NC(=O)c3cccc(Cl)c3)cc2)n1,i
COc1ccc(-c2noc(-c3nn(-c4cccc(C)c4)c(=O)c4ccccc34)n2)cc1OC,i
COc1cc(NC(=O)Cn2c(C)nc3c(c2=O)CN(Cc2ccccc2)CC3)cc(OC)c1,i
Cn1ccnc1SCC1CCN(C(=O)c2ccc(OC(F)(F)F)cc2)CC1,i
O=C(Nc1ccc(Cl)c2ncsc12)c1ccc(S(=O)(=O)N2CCCCC2)cc1,i
Cn1nnn(-c2ccc(NC(=O)NCc3cccc4ccccc34)cc2)c1=O,i
CCc1ccc2nc(N(CCCn3ccnc3)C(=O)C3COc4ccccc4O3)sc2c1 (stereo not given),i
CCSc1ccccc1NC(=O)c1cccc(-n2cnnn2)c1,i
N#Cc1cccc(C(=O)NCC(O)c2cccc3ccccc23)c1 (stereo not given),i
Cc1cccc(Cn2nc(-c3ccccc3)c3sc(N4CCOCC4)nc3c2=O)c1,i
COc1nn(C)cc1C(=O)Nc1ccc(C(=O)NCCCn2ccnc2)cc1,i
CC(=O)Nc1ccc(NC(=O)c2c[nH]c3ccccc3c2=O)cc1,i
CN(C)S(=O)(=O)c1cc(NC(=O)c2cc3c(=O)n4ccccc4nc3s2)ccc1Cl,i

# Reprinted from the part before: 7 entries; new compounds follow.
SMILES,GIRK2 act
CCc1ccc2nc(N(CCCn3ccnc3)C(=O)C3COc4ccccc4O3)sc2c1 (stereo not given),i
CCSc1ccccc1NC(=O)c1cccc(-n2cnnn2)c1,i
N#Cc1cccc(C(=O)NCC(O)c2cccc3ccccc23)c1 (stereo not given),i
Cc1cccc(Cn2nc(-c3ccccc3)c3sc(N4CCOCC4)nc3c2=O)c1,i
COc1nn(C)cc1C(=O)Nc1ccc(C(=O)NCCCn2ccnc2)cc1,i
CC(=O)Nc1ccc(NC(=O)c2c[nH]c3ccccc3c2=O)cc1,i
CN(C)S(=O)(=O)c1cc(NC(=O)c2cc3c(=O)n4ccccc4nc3s2)ccc1Cl,i
C=Cc1ccc(NCn2cnc(SC)c(C#N)c2=O)cc1,i
Cc1cc(NC(=O)COc2ccc(F)cc2)n(-c2nc3c(F)cccc3s2)n1,i
O=C(CC1CCCC1)N1CCN(C(=O)c2cnn3ccccc23)CC1,i
CCC(C(=O)N1CC(c2nc(-c3cnccn3)no2)C1)c1ccccc1 (stereo not given),i
CCOc1ccc(C2NC(=S)NC(C)=C2C(=O)Nc2ccc(C)c(C)c2)cc1 (stereo not given),i
O=C(NCCC1=CCCCC1)c1nnn(-c2ccc(C(F)(F)F)cc2)n1,i
Cc1ccc(C)c(S(=O)(=O)NCCNc2ccc(-n3cccc3)nn2)c1,i
Cc1ccc(C(c2c(O)cc(C)n(Cc3ccco3)c2=O)N2CCN(c3ccccn3)CC2)cc1 (stereo not given),i
CCc1[nH]nc(S(=O)(=O)NCc2ccccc2C(F)(F)F)c1C(=O)OC,i
CCOCCn1c(=O)c2c(nc3n2CC(C)CN3c2ccc(OCC)cc2)n(C)c1=O (stereo not given),i
COc1ccccc1C(=O)Nc1cc(C)ns1,i
CC(C)(C)Oc1ccc(/C=C2\C=C(CC(=O)NCc3ccccc3)c3cc(F)ccc32)cc1,i

# 3 of these compounds, reformatted:
structure	GIRK2 act
Cc1ccc(C(c2c(O)cc(C)n(Cc3ccco3)c2=O)N2CCN(c3ccccn3)CC2)cc1 (stereo not given)	i
Cc1ccc(C)c(S(=O)(=O)NCCNc2ccc(-n3cccc3)nn2)c1	i
Cc1cc(NC(=O)COc2ccc(F)cc2)n(-c2nc3c(F)cccc3s2)n1	i

# Continued.
SMILES,GIRK2 act
COc1ccc(-c2nnc(SCC(=O)Nc3cccc(C(C)=O)c3)n2N)cc1OC,i
COc1ccc(OCc2noc(CNC(=O)Cn3ccc4ccccc43)n2)cc1,i
O=C(CCc1csc(NC(=O)c2ccco2)n1)Nc1ccc(Oc2ccccc2)cc1,i
O=C(c1ccoc1)N1CCC(CNC(=O)C2(c3cccs3)CCCC2)CC1,i
COc1cccc(C(=O)NCC2CCN(C(C)C)CC2)c1,i
COc1ccc(C(=O)Nc2oc3ccccc3c(=O)c2-c2ccc3c(c2)OCO3)cc1OC,i
NC(=O)COc1ccc2c(=O)c(-c3ccc(Cl)cc3)coc2c1,i
Cc1ccc2nc(C3CN(CC(=O)Nc4ccccc4F)C3)[nH]c2c1,i
Cc1cc(C)c[n+](-c2nc3ccccc3nc2[N-]S(=O)(=O)c2cccs2)c1,i
CCc1ccc(OC)c(S(=O)(=O)Nc2ccc3c(c2)NC(=O)C(C)(C)CO3)c1,i
O=C1C2N=NN(Cc3nc(-c4cccc(Br)c4)no3)C2C(=O)N1c1ccc2c(c1)CCC2 (stereo not given),i
Cc1c(C)n2c3c(=O)n(CCN4CCCCC4)c(=O)n(C)c3nc2n1C1CCCCC1,i

# Screening data (PubChem BioAssay)
